# Screening data as filed in PubChem BioAssay.
# TRPML1 blocker = qHTS for Inhibitors of the Human Mucolipin Transient Receptor Potential 1 (TRPML1). TRPML1-inducible cells, Ca2+ dye fluorescence, FDSS; stronger effect = lower value; inhibition of EC80 agonist-evoked calcium signal. activity change, negative = inhibition, % (no concentration beside the values). hit rate 0.02% among 390,000. AID 624415, 2012; in the data active means activity change below about -50%; inconclusive means about -30% to -50%; inactive means above about -30%;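 further: stimulus is agonist 54-4 at its EC80 concentration; on the % scale 0 is the no-effect control and ±100 the full control effect; compound concentration not given in the record; the text of the record puts the active cut at -80%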
# Target sequence (Q9GZU1 whole entry, looked up): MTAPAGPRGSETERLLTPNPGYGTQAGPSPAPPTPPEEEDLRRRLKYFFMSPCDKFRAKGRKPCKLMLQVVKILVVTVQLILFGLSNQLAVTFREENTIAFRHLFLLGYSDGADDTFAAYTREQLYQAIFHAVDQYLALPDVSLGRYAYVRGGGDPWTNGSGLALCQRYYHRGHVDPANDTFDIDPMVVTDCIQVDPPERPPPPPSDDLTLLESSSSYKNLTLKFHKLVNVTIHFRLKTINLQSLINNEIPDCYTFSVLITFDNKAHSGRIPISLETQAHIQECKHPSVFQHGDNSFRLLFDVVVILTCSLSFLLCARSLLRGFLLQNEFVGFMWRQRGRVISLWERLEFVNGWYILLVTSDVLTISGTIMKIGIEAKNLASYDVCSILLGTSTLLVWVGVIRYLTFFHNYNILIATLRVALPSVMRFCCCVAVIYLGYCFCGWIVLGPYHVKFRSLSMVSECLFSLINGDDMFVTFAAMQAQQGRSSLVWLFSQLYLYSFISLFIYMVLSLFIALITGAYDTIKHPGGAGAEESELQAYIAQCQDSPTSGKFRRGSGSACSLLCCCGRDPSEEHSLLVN
#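 Calcium fluorescence in TRPML1-DL cells induced overnight with Tet: a 110 s read after compound pin addition, then a 110 s antagonist read after challenge with 54-4 at 4 uM final (EC80).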
# D2 PAM = Beta-Arrestin HTS for Positive Allosteric Modulators of the Human D2 Dopamine Receptor: Potentiators. potentiation, % (no concentration beside the values). AID 624464, 2012. hit rate 0.23% among 360,000. DiscoveRx D2 beta-arrestin cells, luminescence, 90 min; 100% = 57 uM dopamine signal; active = potentiation of 50% or more; inconclusive = 30% to 50%; inactive = 30% or less;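 further: compound concentration not given in the record; tested on top of an EC20 dose of dopamine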
# Target sequence (P14416 whole entry, looked up): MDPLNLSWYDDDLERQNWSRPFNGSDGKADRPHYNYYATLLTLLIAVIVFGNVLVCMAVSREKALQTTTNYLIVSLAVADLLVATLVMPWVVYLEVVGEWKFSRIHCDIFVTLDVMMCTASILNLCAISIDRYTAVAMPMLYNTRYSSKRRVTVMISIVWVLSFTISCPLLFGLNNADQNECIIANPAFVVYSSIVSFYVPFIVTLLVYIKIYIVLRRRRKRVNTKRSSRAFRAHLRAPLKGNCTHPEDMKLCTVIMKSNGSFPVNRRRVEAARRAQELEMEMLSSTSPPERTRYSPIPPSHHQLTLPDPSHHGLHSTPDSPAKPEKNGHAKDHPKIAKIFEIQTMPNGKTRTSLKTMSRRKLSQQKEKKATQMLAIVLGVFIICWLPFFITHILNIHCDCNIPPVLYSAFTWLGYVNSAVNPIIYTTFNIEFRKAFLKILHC
#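 D2 cells co-treated with compound plus 50 nM dopamine (EC20) for 90 min at 37 deg C to detect potentiation. Beta-arrestin recruitment was read as enzyme-fragment luminescence after 1 h at ambient temperature. Full response was set by 57 uM dopamine.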
# PINK1 modulator = A Quantitative High throughput Screen to Identify Chemical Modulators of PINK1 Expression; PINK1 immunofluorescence, high-content cytometry, 24 h; Potency, µM (titrated, usually from 76.6 µM), without a hit: at the highest dose activation (PINK1 increase), hits mostly activators; hit rate 0.2% among 410,000; AID 624263, 2012; active = well fitted activation curve with a large enough effect; inconclusive = small, poorly fitted or top-dose-only effect; inactive = flat fitted curve, though single readings scatter; cell line not stated here;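 further: potency means the concentration at half of the fitted maximal effect; % of control where 0% means no effect; nearly all actives have a fitted effect of over 65% in size; a mitochondrial uncoupler was the plate control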
#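 Decision-based qHTS: stable cells, 24 h exposure to five compound concentrations, CCCP as control. Fixed cells stained for PINK1 plus nuclear, mitochondrial and cell markers, cytometer read.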
# D2 agonist = Beta-Arrestin HTS for Positive Allosteric Modulators of the Human D2 Dopamine Receptor: Agonists; hit rate 0.084% among 360,000; DiscoveRx PathHunter D2 beta-arrestin, luminescence, 90 min; 100% = 57 uM dopamine signal; activation, % (concentration not given with the values); in the data active = activation above about 40%; inconclusive = about 15% to 40%; inactive = below about 15%; further: compound concentration not given in the record; the text of the record calls up to 30% inactive
#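 Agonist mode: compounds alone added to overnight-plated D2 PathHunter cells for 90 min at 37 C, with 57 uM final dopamine (EC100) defining full response. Beta-arrestin recruitment detected by chemiluminescent reagent, read after 1 h at ambient temperature.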
# Six1-Eya2 blk = qHTS Assay for Inhibitors of the Six1/Eya2 Interaction | AlphaScreen GST-Six1/His-Eya2 binding, biochemical; stronger effect = lower value; control for the full effect not named in the record | activity change, % (test concentration not listed) | hit rate 0.56% among 360,000; in the data active = activity change below about -65%; inconclusive = about -30% to -65%; inactive = above about -30%; further: on the % scale 0 is the no-effect control and ±100 the full control effect; compound concentration not given in the record
#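 AlphaScreen with GST-Six1 and His-Eya2 (5X mix: 250 nM and 500 nM), glutathione donor and nickel acceptor beads; buffer 50 mM Tris pH 8.0, 300 mM NaCl, 1 mM TCEP; 1 h at 37 C in the dark.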
# TRPML1 agonist = qHTS for Agonists of the Human Mucolipin Transient Receptor Potential 1 (TRPML1). Mucolipin-1 (Homo sapiens), Q9GZU1. TRPML1-expressing cells, Ca2+ dye fluorescence, FDSS; host cell line not named in the record; reference of the full effect not given here. activation, % (no concentration beside the values). hit rate 0.12% among 410,000. AID 624414, 2012; in the data active = activation above about 50%; inconclusive = about 30% to 50%; inactive = below about 30%; further: 0% is about no effect; the text of the record puts the active cut at 80%
#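 Tet-induced TRPML1-DL cells, 1,500 per well, cultured overnight, were loaded with a no-wash Ca2+ dye for 45–90 min. Calcium fluorescence was recorded on the FDSS for 110 s after compound addition, before the EC80 agonist (4 uM 54-4) was added.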
# * hit, by the source's call; . = no result given; [ ] = another dose, or the depositor's remark.
SMILES,TRPML1 blocker,D2 PAM,PINK1 modulator,D2 agonist,Six1-Eya2 blk,TRPML1 agonist
COc1ccccc1CNC(=O)C1CCCN(S(=O)(=O)c2cnc[nH]2)C1 (configuration not stated),-17.8,-8.6,-0.2%,-4.7,2.3,-0.2
CC(C)Oc1ccc(CCNC(=O)C2CCC(=O)N(Cc3cccc(F)c3)C2)cc1 (configuration not stated),-0.9,-2.9,2.5%,3.7,5.8,0.0
CCCc1nnc(NC(=O)CCC(=O)N2CCN(C3CCCC3)CC2)s1,0.2,-22.0,-1.3%,-4.2,-1.7,-0.4
Cc1cc(C)n(-c2nc3ccccc3nc2Nc2cc(C(=O)O)ccc2C)n1,-13.4,.,-0.7%,.,.,-0.5
Cc1cc(C)c(N(C(=O)c2csnn2)C(C(=O)NC(C)(C)C)c2ccncc2)c(C)c1 (configuration not stated),20.6,-7.3,-1.8%,1.1,1.5,1.2
CCOc1ccc(-n2c(C)nc3c(cnn3-c3ccc(Cl)cc3)c2=O)cc1,1.1,-5.2,6.1%,-2.5,-3.4,-0.9
CCOc1ccc(S(=O)(=O)NCCC(=O)NCc2cccnc2)cc1,4.0,-1.7,1.0%,-4.5,-0.7,-0.8
CCC(c1nnnn1CCOC)N(Cc1ccc(C)cc1)Cc1cc2cc(OC)ccc2[nH]c1=O (configuration not stated),7.8,-22.2,-0.8%,-2.2,21.8,4.2
O=C(COC(=O)c1cc(=O)[nH]c2ccccc12)NCc1ccc(F)cc1,-5.5,-0.5,1.2%,0.8,-4.4,0.7
CCCCn1c(SCC(=O)c2cc(OC)ccc2OC)nc2cc(S(N)(=O)=O)ccc21,3.0,9.3,0.8%,-1.2,-2.9,-0.8
CCOc1ccc(NC(=O)CN(C)C(=O)c2cccc3ccccc23)cc1OCC,8.1,-4.7,1.5%,-2.6,-0.6,1.0
CC(C)Nc1c([N+](=O)[O-])c(=O)oc2ccccc12,4.8,-13.2,0.4%,-1.2,1.1,-0.7
CC(=O)NC1=NN(C(C)=O)C(C)(CCS(=O)(=O)c2ccc(Br)cc2)S1 (configuration not stated),8.7,-1.4,-1.4%,3.2,7.1,0.8
COc1cc(C(=O)NCC(c2cccs2)N2CCOCC2)cc(Br)c1OCc1ccccc1 (configuration not stated),11.3,-9.9,0.6%,5.0,-3.4,1.5
Cc1cccc(N2CCN(C(=O)Cn3nc(Cc4ccncc4)c4ccccc4c3=O)CC2)c1C,13.4,-3.8,-0.3%,-2.9,-17.5,1.1
Cc1ccc(S(=O)(=O)/N=C(/c2ccc(F)cc2)N2CCCC2)cc1,2.3,-6.8,-1.5%,-4.5,-2.3,0.3
CN(C)c1ccc(C(=O)Nc2ccc(S(=O)(=O)NC3=NCCCCC3)cc2)cc1,3.5,-15.6,7.2%[38.3 µM],-2.3,-14.5,-0.9
COc1ccc(NC(=O)CC(C)CC(=O)NCc2ccc(F)cc2)c(OC)c1 (configuration not stated),0.5,-2.0,4.5%,-3.8,1.0,0.7
Cc1cccc(CSC(=N)N)c1,9.6,-18.2,1.2%,0.6,13.6,0.9
CS(=O)(=O)Nc1ccc(-c2cc(/C=C3\SC(N)=NC3=O)c[nH]c2=O)cc1,4.9,-3.4,0.1%,-1.0,-20.5,-0.4
Cc1ccc(NC(=S)Nc2ccc3cn[nH]c3c2)cc1C,-2.0,-2.7,0.6%,-1.7,-4.6,0.2
Cc1c(C(=O)CN2CCCC(C)(C)C2)c2ccccc2n1C,20.9,-9.7,-0.5%,-6.6,0.8,1.4
C=CCN1CCN(C(=O)CSc2ccccc2)CC1,9.2,-41.6,-1.8%,-5.0,9.4,-0.7
CCC(C)(C)NC(=O)CC(c1ccc(OC)cc1)n1cccc1 (configuration not stated),11.3,9.2,0.7%,-3.6,-5.3,1.1
CC(=O)C1=C(C)OC(N)=C(C#N)C1c1cc2cccc(C)c2nc1Cl (configuration not stated),-11.3,-9.9,6.3%[38.3 µM],-3.5,0.1,-0.6
Cc1ccc(C)c(-c2csc(-c3c(N)c(C(=O)c4ccc5c(c4)OCO5)n4ccccc34)n2)c1,12.1,.,4.2%,.,.,0.5
N#Cc1ccc(Cn2ccnc2C(=O)Nc2ccccc2)cc1,9.8,2.5,1.2%,6.6,-0.2,-0.3
C/C(=N\NC(=O)c1nnn(-c2nonc2N)c1CSc1ccccc1)c1ccc2c(c1)OCO2,0.3,1.1,4.8%,6.9,4.1,-0.1
O=C(CCCSc1nc2ccccc2[nH]1)NC1=NCCS1,-10.5,-3.8,-0.1%,-0.2,-1.1,-0.7
COc1ccc2cc(CN(CCCN3CCOCC3)Cc3nnnn3C3CCCC3)c(=O)[nH]c2c1,1.9,-29.2,.,-1.4,0.0,0.5
Cc1cc(C)cc(NC(=O)C(NCCN2CCOCC2)c2ccccc2)c1 (configuration not stated),38.9,-2.1,-0.6%,-1.9,9.0,0.0
O=C(NNC(=O)c1ccncc1)Nc1cccc(C(F)(F)F)c1,-1.9,-2.6,-0.1%,-0.9,12.0,-0.2
CC1(N=Cc2cc(Cl)ccc2O)COP(=O)(Nc2ccccc2)OC1 (configuration not stated),-3.0,-20.2,4.7%,-5.0,-2.0,0.3
Cc1c(NC(=O)OCCNC(=O)Nc2ccccc2)sc(=S)n1C,3.3,-0.7,-1.3%,-2.5,-8.9,-0.4
CCOC(=O)c1[nH]cnc1C(=O)N[C@@H](C)c1ccccc1,5.1,-4.3,-0.5%,-4.8,-7.9,-0.6
O=C(Cn1nc(-c2ccccc2)ccc1=O)NCC1CCCO1 (configuration not stated),15.6,-6.6,-0.5%[38.3 µM],-1.6,-1.0,0.3
Clc1ccc(C=NNc2ccccn2)c(Cl)c1,-12.5,-10.5,5.3%,-1.4,-0.7,0.0
Cc1ccc(S(=O)(=O)NCC(c2ccccc2)N2CCN(CCC#N)CC2)cc1 (configuration not stated),-0.3,-9.1,-1.7%,0.4,0.5,-0.3
O=C1/C(=C/c2ccc(F)cc2)SC(=S)N1NS(=O)(=O)c1ccccc1,-3.5,-7.7,-1.3%,-1.3,0.0,-0.9
CCOc1ccccc1N(C(=O)CNS(=O)(=O)c1ccccc1)C(CC)C(=O)NCc1ccco1 (configuration not stated),-13.0,-10.9,.,-3.7,-4.6,-0.4

# Entries of single compounds from above. Order of screens: TRPML1 blocker | D2 PAM | PINK1 modulator | D2 agonist | Six1-Eya2 blk | TRPML1 agonist
# `N#Cc1ccc(Cn2ccnc2C(=O)Nc2ccccc2)cc1` is listed as 9.8 | 2.5 | 1.2% | 6.6 | -0.2 | -0.3
# `CCOc1ccccc1N(C(=O)CNS(=O)(=O)c1ccccc1)C(CC)C(=O)NCc1ccco1` (configuration not stated) is listed as -13.0 | -10.9 | . | -3.7 | -4.6 | -0.4

# More entries follow.
SMILES,TRPML1 blocker,D2 PAM,PINK1 modulator,D2 agonist,Six1-Eya2 blk,TRPML1 agonist
COCCN(Cc1cc2cc(C)cc(C)c2nc1Cl)C(=O)Nc1ccccc1,25.4,-9.6,5.6%[38.3 µM],-2.3,3.3,1.1
CCC(=O)Nc1cccc(-n2nnnc2SCC(=O)N(C(C)C)C(C)C)c1,17.3,0.9,2.4%,-0.4,-6.1,-0.8
CCOC(=O)c1oc2ccccc2c1NC(=O)c1cc(OC)cc(OC)c1,12.7,-6.4,4.9%[38.3 µM],2.0,4.3,2.2
COc1cc(-c2nn3c(Cc4ccccc4)nnc3s2)cc(OC)c1OC,14.5,8.4,1.0%[38.3 µM],2.1,-4.3,1.0
Cn1c(=O)[nH]c(Nc2ccccc2)c([N+](=O)[O-])c1=O,3.5,-7.1,-0.9%,-5.7,-3.6,1.8
O=C(NCc1nnnn1-c1ccc(F)c(F)c1)C(=O)c1c[nH]c2ccccc12,3.7,-5.1,2.6%,-1.5,-6.4,0.7
CCOC(=O)[C@]12CCC=C1N(Cc1ccco1)C(=O)[C@H](CC(=O)NCc1cccc3ccccc13)C2,.,.,-0.6%,.,-11.9,-1.1
CCN(CCNC(=O)C1CCN(S(=O)(=O)CC)CC1)c1ccccc1,10.2,-1.2,.,-1.1,7.1,0.6
O=C1Nc2ccccc2Oc2cc(Oc3ccc(Cl)cc3)ccc21,11.0,.,5.4%,.,.,0.3
Cc1nn(C)c(NC(=O)c2ccc(Cl)cc2)c1Cl,24.2,-7.1,-2.0%,3.9,-2.4,2.8
CCCS(=O)(=O)N1CC(=O)N(c2ccc(C)c(Cl)c2)C(C)(C(=O)NC2CCCCCC2)C1 (configuration not stated),8.6,.,2.4%,.,.,0.7
CC(=O)O/N=C/c1c(NCc2ccccc2)nc2c(C)cccn2c1=O,13.6,-4.5,2.3%,-3.2,6.1,2.5
CCS(=O)(=O)c1ccc2oc(Nc3ccccc3Br)nc2c1,51.4,-2.2,5.0%,-2.3,-4.0,1.1
CCCCCCOC(=O)CCn1[nH]c(=O)c2ccccc2c1=O,0.2,-12.9,2.3%,-5.7,-2.7,2.1
c1ccc(-c2ccc(-c3csnn3)cc2)cc1,41.0,-4.7,10.5%,-2.9,11.9,0.1
NC(=O)c1cc(S(=O)(=O)N2CCCC2)ccc1OCc1ccc(F)cc1,-12.4,-13.4,0.6%,-1.3,2.3,1.3
COC(=O)Nc1ccc(S(=O)(=O)N2CCCC(C(=O)O)C2)cc1 (configuration not stated),6.6,-1.0,-0.9%,-3.5,-11.3,1.3
O=C(COc1ccccc1Cl)c1ccc2c(c1)CCCC2,12.3,3.3,5.2%,-5.4,49.8,-1.0
COCCCNC(=O)c1ccc2c(=O)n(C3CCCC3)c(=S)[nH]c2c1,-9.6,-13.2,0.9%,-4.3,-10.2,-1.1
Clc1cccc(/C=N\Nc2nccs2)c1,-16.6,-1.7,-1.2%,0.1,-10.2,-1.7
CN1CCN(C(=S)C(=O)NCc2ccccc2)CC1,-20.8,-2.8,0.4%,-2.9,7.2,-0.1
Cc1ccn(S(=O)(=O)c2ccc(N3CCCC3=O)cc2)n1,-1.5,1.7,1.7%,-0.7,20.9,-0.5
CCCCC(c1nnnn1C1CCCC1)N1CCN(C2CCCC2)CC1 (configuration not stated),1.1,-25.9,-1.4%,-4.8,-3.1,1.8
COC(=O)C1=C(c2ccccc2)c2ccccc2S(=O)(=O)N1CC(=O)Nc1ccc(OC)cc1OC,2.3,.,-0.3%,.,.,1.4
C(=C\c1ccccc1)/CN1CCN(C(c2cccc3ccccc23)c2nnnn2-c2ccc3c(c2)OCCO3)CC1 (configuration not stated),.,-16.3,0.6%,-1.7,-22.5,0.7
CCC1CCCCN1CCCNC(=O)c1ccc2c(c1)c(C)c(C)n2C (configuration not stated),5.4,-36.3,0.9%,-5.2,-12.5,-0.5
Cc1[nH]n(-c2nc(-c3ccccc3F)cc(=O)[nH]2)c(=O)c1CCO,-7.5,-6.1,-0.6%,-2.5,-9.3,-0.3
CC(C)c1cc(C(=O)NC2CCCCCC2)c2ccccc2n1,-1.2,-4.5,-0.1%,1.5,14.0,-0.3
O=C1CN(C(=O)c2cccs2)c2ccccc2N1,3.6,-8.0,1.4%,-3.0,3.5,-0.1

# Compounds as they come, and some 1% of all compounds hit somewhere here.
